Bioassay records from PubChem.
Mtb growth: Mycobacterium tuberculosis H37Rv growth inhibition, putative kinase inhibitor library, confirmatory dose response (AID 2842). M. tuberculosis H37Rv growth inhibition; higher % means a stronger effect; some inactives read as strong as hits. inhibition, % at 10 µg/mL; hits with a dose series show IC90 in µg/mL. 24,000 compounds, 5.2% hits;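 active means confirmed in a dose series; about a fifth of its hits are not listed in these tables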;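 further: bacteria incubated one week before Alamar blue readout; 0% = bacteria only wells and 100% = bacteria with high antibiotic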
* marks the source's active call; other numbers are inactive results.

SMILES | Mtb growth
COc1ccccc1-c1nnc(NC(=O)C(C)Sc2ccc(C)cc2)s1 (stereo not given) | 2%
O=C(COc1ccccc1)N/N=C/c1ccc([N+](=O)[O-])cc1 | -16%
CCc1ccc(-c2nnc3c4cc5c(cc4n(Cc4ccc(F)cc4)cc2-3)OCO5)cc1 | 8%
COc1ccc(NC(=O)c2cnc3n(c2=O)CCS3)cc1 | -10%
CCN(CC)S(=O)(=O)c1ccc(C(=O)Nc2sc3c(c2C(=O)OC)CC(C)(C)NC3(C)C)cc1 | -2%
O=c1c(=O)n(-c2cccc3ccccc23)ccn1Cc1ccncc1 | -5%
Cc1ccc(NC(=O)CSc2nnc3[nH]c(=O)c(C)c(C)n23)c(C)c1 | -20%
Cc1nnc(SCC(=O)Nc2cccc(C(=O)OC(C)C)c2)[nH]c1=O | -19%
CCOC(=O)N1CCN(S(=O)(=O)c2ccc(C(=O)Nc3ccc4c(c3)C(=O)NC4=O)cc2)CC1 | 4%
CC(=O)N1CCc2c(sc(NC(=O)c3cc(-c4cccs4)nc4ccccc34)c2C(N)=O)C1 | -2%
Clc1cc(Cl)c2nc(N3CCN(c4ccccc4)CC3)sc2c1 | -10%
Fc1ccc(CSc2nnc3ccc(-c4ccco4)nn23)cc1 | 21%
COc1cccc(NC(=O)c2oc3ccccc3c2NC(=O)CC2CCCC2)c1 | -2%
CCOc1ccc2ccccc2c1C(=O)Nc1c2c(nn1-c1ccc(C)cc1)CS(=O)C2 (stereo not given) | 6%
Cc1cc(NC(=O)CSc2nnc(-c3ccc(Cl)s3)o2)no1 | 0%
COc1cc([N+](=O)[O-])ccc1NC(=O)CSc1ncccn1 | 22%
CCn1c(SCC(=O)Nc2ccc(C(=O)OC)cc2)nnc1-c1c[nH]c2ccccc12 | -18%
Cn1c(=O)c2c(nc(CN3CCC(C(N)=O)CC3)n2Cc2ccccc2)n(C)c1=O | -5%
CC(C)(C)CC(=O)Nc1c(C(=O)Nc2cccc(F)c2)oc2ccccc12 | -3%
O=C(CSc1nc2ccccc2c(=O)[nH]1)N1CCOCC1 | 3%
COc1ccc(NC(=O)c2ccc(S(=O)(=O)N3CCOCC3)cc2)c2ccccc12 | -1%
O=C1c2cccc3cccc(c23)C(=O)N1CCCSc1nnc(C2COc3ccccc3O2)n1-c1ccccc1 (stereo not given) | -1%
Cc1c(Cc2ccc3c(c2)OCO3)sc(NC(=O)c2sc3ccccc3c2Cl)c1C#N | 10%
Cc1cc2nc(N(Cc3cccnc3)C(=O)c3ccccc3[N+](=O)[O-])sc2cc1C | -9%

As a working copy, some entries already given:
SMILES | Mtb growth
COc1ccccc1-c1nnc(NC(=O)C(C)Sc2ccc(C)cc2)s1 (stereo not given) | 2%
O=C(COc1ccccc1)N/N=C/c1ccc([N+](=O)[O-])cc1 | -16%
CCc1ccc(-c2nnc3c4cc5c(cc4n(Cc4ccc(F)cc4)cc2-3)OCO5)cc1 | 8%
COc1ccc(NC(=O)c2cnc3n(c2=O)CCS3)cc1 | -10%
CCN(CC)S(=O)(=O)c1ccc(C(=O)Nc2sc3c(c2C(=O)OC)CC(C)(C)NC3(C)C)cc1 | -2%
O=c1c(=O)n(-c2cccc3ccccc23)ccn1Cc1ccncc1 | -5%
Cc1ccc(NC(=O)CSc2nnc3[nH]c(=O)c(C)c(C)n23)c(C)c1 | -20%
Cc1nnc(SCC(=O)Nc2cccc(C(=O)OC(C)C)c2)[nH]c1=O | -19%
CCOC(=O)N1CCN(S(=O)(=O)c2ccc(C(=O)Nc3ccc4c(c3)C(=O)NC4=O)cc2)CC1 | 4%
CC(=O)N1CCc2c(sc(NC(=O)c3cc(-c4cccs4)nc4ccccc34)c2C(N)=O)C1 | -2%
Clc1cc(Cl)c2nc(N3CCN(c4ccccc4)CC3)sc2c1 | -10%
Fc1ccc(CSc2nnc3ccc(-c4ccco4)nn23)cc1 | 21%
COc1cccc(NC(=O)c2oc3ccccc3c2NC(=O)CC2CCCC2)c1 | -2%
CCOc1ccc2ccccc2c1C(=O)Nc1c2c(nn1-c1ccc(C)cc1)CS(=O)C2 (stereo not given) | 6%
Cc1cc(NC(=O)CSc2nnc(-c3ccc(Cl)s3)o2)no1 | 0%
COc1cc([N+](=O)[O-])ccc1NC(=O)CSc1ncccn1 | 22%
CCn1c(SCC(=O)Nc2ccc(C(=O)OC)cc2)nnc1-c1c[nH]c2ccccc12 | -18%
Cn1c(=O)c2c(nc(CN3CCC(C(N)=O)CC3)n2Cc2ccccc2)n(C)c1=O | -5%
CC(C)(C)CC(=O)Nc1c(C(=O)Nc2cccc(F)c2)oc2ccccc12 | -3%
O=C(CSc1nc2ccccc2c(=O)[nH]1)N1CCOCC1 | 3%
COc1ccc(NC(=O)c2ccc(S(=O)(=O)N3CCOCC3)cc2)c2ccccc12 | -1%

Next part
SMILES | Mtb growth
CC1CCN(c2nc(NCCO)c3cnn(C)c3n2)CC1 | -1%
Cc1cccc(NC(=O)Cn2cnc3c(cnn3-c3ccc(C)c(C)c3)c2=O)c1 | -6%
COC(=O)CCSCC(=O)Nc1nnc(C)s1 | 0%
C=CCN1CC(c2nc3ccccc3n2CCCOc2cc(C)cc(C)c2)CC1=O (stereo not given) | 16%
CCOc1ccc(NC(=O)CSc2nccn(-c3ccc(F)cc3)c2=O)cc1 | 1%
CCc1cccc(OCC(O)Cn2c(NCc3ccccc3)nc3c2c(=O)[nH]c(=O)n3C)c1 (stereo not given) | 22µg/mL*
COc1cc(OC)cc(-c2nnc(Nc3nc4c(F)cccc4s3)o2)c1 | 60%
COc1ccc(S(=O)(=O)N2CCOCC2)cc1C(=O)NCc1ccc2c(c1)OCO2 | 3%
Cc1ccc(NC(=O)c2oc3ccccc3c2NC(=O)C2CCCO2)cc1C (stereo not given) | 5%
O=c1[nH]cc(S(=O)(=O)N(Cc2ccccc2)Cc2ccccc2)c(=O)[nH]1 | -10%
CCOC(=O)c1[nH]c(C)c(/C(O)=C2\C(=O)C(=O)N(CCN3CCOCC3)C2c2cccs2)c1C (stereo not given) | -11%
O=C(Cc1csc(NC(=O)c2ccccc2)n1)NCc1ccncc1 | -2%
COc1ccc(NC(=O)CN2N=NC3C(=O)N(c4ccc(F)c(F)c4)C(=O)C32)cc1Cl (stereo not given) | 45%
CC(C)(C)NC(=O)Cn1cnc2c(cnn2-c2cccc(Cl)c2)c1=O | -9%
O=C(COc1ccc(Cl)cc1)Nc1c2c(nn1-c1ccc(F)cc1)CS(=O)C2 (stereo not given) | 5%
COCCCNC(=O)C(=O)Nc1cc2c3c(c1)CC(=O)N3CCC2 | -4%
Cn1c(NC(=O)c2cccc(C(F)(F)F)c2)cc(=O)n(C)c1=O | -10%
Cc1ccc(Sc2nc3c(c(=O)n(C)c(=O)n3C)n2Cc2ccccc2Cl)cc1 | 4%
COc1ccc(CC(=O)NC2CC(=O)N(c3cccc(OC)c3)C2)cc1 (stereo not given) | 0%
COc1ccc(-c2nnc(NC(=O)C(C)Sc3nncn3C)s2)cc1 (stereo not given) | 1%
Cn1c(=O)c2c(SCC(=O)Nc3cccc(F)c3)nc(-c3ccco3)nc2n(C)c1=O | 11%
Cc1nnc(SC/C=C/c2ccccc2)[nH]c1=O | -20%
O=C(Nc1nnc(-c2ccc(Br)cc2)o1)c1cccc(C(F)(F)F)c1 | 85%
NC(=O)c1c(NC(=O)c2cc(Cl)ccc2Cl)sc2c1CCN(Cc1ccccc1)C2 | 5%
Cc1nnc(SCC(=O)Nc2ccc([N+](=O)[O-])cc2)[nH]c1=O | -11%
Cc1ccc(NC(=O)CN2C(=O)CC(c3ccco3)Sc3ccccc32)c(C)c1 (stereo not given) | 10%
COc1ccc(CCNC(=O)/C=C2\SC(=O)NC2=O)cc1 | 52%
COc1ccc(-c2nc(SCC(=O)NCc3ccc4c(c3)OCO4)c3c(=O)n(C)c(=O)n(C)c3n2)cc1 | -7%
Cc1ccc(Cn2c(N3CCNCC3)nc3c2c(=O)[nH]c(=O)n3C)cc1 | 0%
COc1ccc(OC)c(Nc2ncnc(N)c2[N+](=O)[O-])c1 | 3%
O=C(Nc1nc(-c2cccnc2)cs1)c1cccc(N2C(=O)CCC2=O)c1 | -5%
O=C(NNc1nc2ccccc2s1)Nc1ccccc1 | -9%
CCOc1cccc2sc(N3CCc4ccccc4C3)nc12 | 15µg/mL*
O=C(O)c1ccc2c(c1)C(=O)N(CCCN1CCOCC1)C2=O | -15%
CCOC(=O)c1ccc(NS(=O)(=O)c2ccc3c4c(cccc24)C(=O)N3CC)cc1 | -8%
CC(=O)Cn1c(=O)c2c(nc3n(-c4ccc(Cl)cc4)c(-c4ccccc4)cn23)n(C)c1=O | -9%
O=C(Nc1c(C(=O)Nc2ccc(OC(F)(F)F)cc2)oc2ccccc12)c1ccc2c(c1)OCO2 | 9%
O=C(COc1ccc(Cl)cc1/C=C1\SC(=O)NC1=O)Nc1ccccc1 | 71%
Cc1ccc(-n2c(SCC(=O)Nc3cc(C)cc(C)c3)nc3c(c2=O)SCC3)cc1 | 12%
CCOC(=O)CC1C(=O)NCCN1Cc1ccc(OC)c(OC)c1 (stereo not given) | 0%
Nc1ncnc(N2CCN(CCO)CC2)c1[N+](=O)[O-] | -2%
O=C(CSc1nc2c([nH]c3ccccc32)c(=O)n1-c1cccc(C(F)(F)F)c1)N1CCCCC1 | 23%
CC1CCc2nc(NC(=S)NC(=O)c3ccccc3)sc2C1 (stereo not given) | 18%
CSc1nc2ccc3nc(Nc4nc5ccc(Cl)cc5s4)sc3c2s1 | -1%
O=c1c(S(=O)(=O)c2ccc(F)cc2)cn(Cc2cccc(F)c2)c2ccc(F)cc12 | -1%
CCOC(=O)Cn1c(=O)c2c(nc3n(-c4ccc(C)c(Cl)c4)c(C)c(C)n23)n(C)c1=O | -15%
COc1ccc(-n2c(=O)cc(N3CCN(c4ccccc4F)CC3)[nH]c2=O)cc1 | -6%
COC(=O)CSc1nc2c(c(=O)n(C)c(=O)n2C)n1CCCc1ccccc1 | -4%

Of the compounds above, 4 contain a CF3 group:
SMILES | Mtb growth
Cn1c(NC(=O)c2cccc(C(F)(F)F)c2)cc(=O)n(C)c1=O | -10%
O=C(Nc1nnc(-c2ccc(Br)cc2)o1)c1cccc(C(F)(F)F)c1 | 85%
O=C(Nc1c(C(=O)Nc2ccc(OC(F)(F)F)cc2)oc2ccccc12)c1ccc2c(c1)OCO2 | 9%
O=C(CSc1nc2c([nH]c3ccccc32)c(=O)n1-c1cccc(C(F)(F)F)c1)N1CCCCC1 | 23%

Next section:
SMILES | Mtb growth
O=C(NNC(=O)c1cc2ccccc2cc1O)Nc1ccc(Cl)cc1 | -1%
Cn1c(=O)c2c(SCC(=O)Nc3ccc(F)cc3F)nc(-c3ccccc3)nc2n(C)c1=O | -2%
Cc1ccc(-n2ncc3c(NNC(=O)CCc4ccccc4)ncnc32)cc1Cl | 7%
O=C(Nc1ccc([N+](=O)[O-])cc1)Nc1nc(-c2nc3ccccc3s2)cs1 | 2%
COc1ccccc1-c1nnc(NC(=O)CCc2ccccc2)o1 | 7µg/mL*
CC1CCc2c(sc3ncnc(Nc4cccc(O)c4)c23)C1 (stereo not given) | 8%
CCOC(=O)c1c(NC(=O)c2ccccc2C)sc2c1CCC2 | 4%
CCOC(=O)c1oc2ccccc2c1NC(=O)C1CCCCC1 | 3%
NC(=O)c1ccsc1NC(=O)c1sc2ccccc2c1Cl | -2%
O=C(C(c1ccccc1)c1ccccc1)N1CCN(Cc2ccc3c(c2)OCO3)CC1 | 15%
COC(=O)c1ccc2c(c1)C1c3sc(=O)[nH]c3SC(C(=O)O)C1C(=O)O2 (stereo not given) | -9%
N#Cc1ccc(C(=O)Nc2nnc(-c3cccnc3)o2)cc1 | 53µg/mL*
COC(=O)c1cc(N/C=C(\C#N)c2nc(-c3ccc(C)c(C)c3)cs2)cc(C(=O)OC)c1 | -7%
COc1cccc2cc(C(=O)NC3CC(C)(C)NC(C)(C)C3)c(=O)oc12 | -7%
CCCc1nc(SCC(=O)Nc2ccc(Cl)cc2)c2c(=O)n(C)c(=O)n(C)c2n1 | -2%
CCN1CCN(c2nc3c(c(=O)[nH]c(=O)n3C)n2Cc2ccc(Cl)cc2)CC1 | -4%
O=C(Nc1ccc2c(c1)C(=O)NC2=O)c1ccc2c(c1)OCCO2 | -9%
O=C(O)CCSc1nnc(COc2cccc3cccnc23)n1-c1ccccc1 | -9%
Cc1cc2cc(CCNC(=O)CCC3CCCC3)c(=O)[nH]c2cc1C | 9%
O=C(CCn1c(=O)oc2ccccc21)Nc1cccc(F)c1 | 12%
CCOC(=O)c1nn(-c2ccc(C)cc2)c(=O)c2c(NC(=O)c3ccc(OCC)cc3)scc12 | -3%
Cc1cccc(-c2nnc(NC(=O)c3ccc(Cl)cc3Cl)s2)c1 | 2%
Cc1cccc(C(=O)Nc2nnc(-c3ccc(F)cc3)s2)c1 | 5%
COC(=O)c1ccc(C(=O)NNc2nc3c(C)cc(C)cc3s2)cc1 | 6.5µg/mL*
CCOc1cc(-c2nnc(NC(=O)c3ccc4ncsc4c3)o2)cc(OCC)c1OCC | -1%
COc1ccc(N2CC(NC(=O)NCc3ccccn3)CC2=O)cc1 (stereo not given) | 9%
Cc1ccc2cc(CCNC(=O)CCCc3ccccc3)c(=O)[nH]c2c1 | -4%
Cn1c(=O)[nH]c(=O)c2c1nc(NCCN1CCOCC1)n2Cc1ccc(F)cc1 | 8%
O=C(CC1CCS(=O)(=O)C1)Nc1ccc(F)c(Cl)c1 (stereo not given) | -1%

This is a subset; the hit share may differ from the screen's.
